Screening data (PubChem)
Mtb hypoxia inh – inhibitors of hypoxia-regulated fluorescent reporter in Mycobacterium tuberculosis; 300,000 tested, 0.1% active; M. tuberculosis hypoxia-regulated fluorescent reporter, fluorescence; fluorescence inhibition, % (concentration not given with the values);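 active = 35 to 45% if threefold the growth effect, above 45% if 1.5-fold the growth effect; inactive = the rest, general growth blockers included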;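 note: wells of about 50 µL received 100 nL stock; 0% = vehicle wells and 100% = reference inhibitor wells; whole bacteria with a GFP reporter of the hypoxia response; strong numbers were not always called active; many hits fall short of the cut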
PrP 5UTR inh – inhibition of PrP 5' UTR reporter expression; cell-based PrP 5' UTR mRNA reporter, plate reader; inhibition, % (test concentration not listed); 340,000 tested, 0.35% active; AID 488862;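 active = every replicate at 50% or more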;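 note: 0 = median of the neutral control wells; tested in H4 reporter cells; numbers are from one replicate; inactives centre near -14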
Bead autofluor – counter-screen for toxin protease inhibitors: compound fluorescence | compound autofluorescence counterscreen, microsphere flow cytometry; active compounds read high | fluorescence intensity (concentration not given with the values) | 360,000 tested, 3.1% active | AID 624483;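 active = at least 3 SD above the mean of all compounds, about 16000 in these data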;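 note: 100 nL of 1 mM stock went into each well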
BJeLR lethal – kills HRASV12-expressing BJeLR cells; BJeLR (HRASV12) viability, CellTiter-Glo ATP luminescence, 48 h; reference of the scale not given here; inhibition, % (no concentration beside the values); 300,000 tested, 0.17% active;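 active = replicate mean above 50%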;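 note: 50 nL library stock added to about 25 µL; numbers are from one replicate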
Sa RN4220 lethal – S. aureus RN4220 growth inhibition | OD600, 16 h | inhibition, % (test concentration not listed) | 330,000 tested, 0.33% active | AID 1259311;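 active = z-score of -3 or lower and OD600 up to 0.18 on both plates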;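 note: plate controls were untreated cells for no effect and reference antibiotic for full effect; stock transfer was 100 nL into about 80 µL; one replicate is shown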
ugtP null kill – kills S. aureus RN4220 lacking UgtP | growth inhibition, % (test concentration not listed) | 330,000 tested, 0.54% active | S. aureus RN4220 ugtP deletion, OD600 growth, 16 h; some inactives read as strong as hits;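 active = z-score under -3 and OD600 up to 0.15 on both plates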;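 note: plate controls were untreated wells for no effect and antibiotic for full effect; wells of about 80 µL received 100 nL stock; the first replicate is given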
Mtb hypoxia inh growth – second read-out of Mtb hypoxia inh, no call of its own (marks repeat the call); growth inhibition, %; measured here: M. tuberculosis growth (absorbance);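 0% = vehicle and 100% = reference antibiotic; read after six days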
* marks the source's active call; other numbers are inactive results; x = not tested or not shown.

SMILES	Mtb hypoxia inh	Mtb hypoxia inh growth	PrP 5UTR inh	Bead autofluor	BJeLR lethal	Sa RN4220 lethal	ugtP null kill
O=C(COC(=O)c1ccc(Cl)cc1O)Nc1cccnc1Cl	6	6	-7	2510	1	-1.0	1
CC12CCCC(CC(=O)O)(C1)NC(=O)C2 (stereo not drawn)	6	1	9	2905	x	1.2	0
CCCNC(=O)c1ccc(N2CCC3(CC2)CC(c2cccc(Br)c2)=NO3)c(NC(=O)c2ccccc2)c1	1	11	-12	3948	14	7.4	-21
CC(C)OCCCNC(=O)c1ccncc1	-1	-4	-12	18964*	1	2.7	3
Cc1ccc(C(=O)N/C(=C\c2cccs2)C(=O)NCCc2ccccn2)cc1C	9	3	-34	3586	-5	5.1	12
COc1cccc(CN2CCN(CCc3ccccc3)C(CCO)C2)c1OC (stereo not drawn)	6	12	-15	2303	1	1.7	6
COc1ccccc1-n1c(SCC(=O)Nc2cc(C)on2)nc2c(c1=O)SCC2	14	8	-3	4191	-3	2.9	2
O=C(O)C(C(=O)Oc1ccccc1)C(C(=O)O)C(=O)Oc1ccccc1 (stereo not drawn)	9	5	-22	3636	x	1.4	4
COC(=O)C1=C(C(=O)OC)C2N(C)c3ccc(OC)cc3[C@@]23CC(C(=O)OC)N(C(=O)c2ccco2)C3=N1 (stereo partly drawn)	23	2	x	x	x	4.3	7
COC(=O)C(CCSC)NC(=O)c1cc2c(n(-c3ccccc3)c1=O)CC(C)(C)CC2=O (stereo not drawn)	2	5	-5	1968	4	2.5	3
COc1ccc(NC(=O)NNC(=O)c2cc3ccccc3cc2O)cc1	10	7	-33	5575	0	4.1	-2
Cc1ccccc1SCC(=O)OCC(=O)NCCNC(=O)COC(=O)CSc1ccccc1C	11	12	-12	5776	-4	7.3	3
CCOC(=O)c1ccc(N2CCN(c3ccccc3F)CC2)c(NC(=O)Nc2cccc(OC)c2)c1	-5	2	-9	7299	3	2.3	3
CCOC(=O)Cc1c(C)nc2c(-c3ccccc3)c(C)[nH]n2c1=O	7	12	2	10733	14	1.3	0
O=C(COC(=O)c1ccccc1O)NCc1ccccc1Cl	18	36	-13	3913	x	1.1	1
O=C(NCc1cccs1)C1CCC(CNS(=O)(=O)c2cccc3nsnc23)CC1 (stereo not drawn)	0	9	-39	5795	4	0.5	3
Cc1cccc(C(=O)Nc2cccc(-c3ccc4nncn4n3)c2)c1	0	-7	-36	6987	2	1.4	12
C=CCC(Nc1ccccc1)C12C=CC(O1)C(C(=O)OC)=C2C(=O)OC (stereo not drawn)	21	13	-26	3307	1	-12	-6
Cc1cc(C(=O)NC2CCCc3c2cnn3-c2cccc(C)c2C)no1 (stereo not drawn)	17	19	31	6564	16	4.5	3
CSCC(=O)N1CCCC(C(=O)c2cc(F)ccc2F)C1 (stereo not drawn)	13	8	1	2663	3	9.1	0
CC(OC(=O)c1ccc(Cl)cc1O)C(=O)NCCC1=CCCCC1 (stereo not drawn)	10	8	-18	3047	x	-0.1	4
O=C(CN1CCC(C(=O)c2ccc(F)cc2)CC1)Nc1ccccc1Cl	-2	2	-16	4459	-1	-3.0	17
Cc1ccc2c(c1)OC(=O)CC2c1ccccc1 (stereo not drawn)	x	x	-13	4946	0	0.9	-6
Cc1noc(NS(=O)(=O)c2ccc(NC(=O)c3cc4ccccc4o3)cc2)c1C	19	24	-13	3344	x	6.4	-2
COc1ccc(C(C(=O)NCC2CCCO2)N(C(=O)c2snc(C(N)=O)c2N)c2ccccc2)cc1OC (stereo not drawn)	3	6	-20	5908	-16	6.8	16

Next section, starting with the last seven of the part before.
SMILES	Mtb hypoxia inh	Mtb hypoxia inh growth	PrP 5UTR inh	Bead autofluor	BJeLR lethal	Sa RN4220 lethal	ugtP null kill
Cc1cc(C(=O)NC2CCCc3c2cnn3-c2cccc(C)c2C)no1 (stereo not drawn)	17	19	31	6564	16	4.5	3
CSCC(=O)N1CCCC(C(=O)c2cc(F)ccc2F)C1 (stereo not drawn)	13	8	1	2663	3	9.1	0
CC(OC(=O)c1ccc(Cl)cc1O)C(=O)NCCC1=CCCCC1 (stereo not drawn)	10	8	-18	3047	x	-0.1	4
O=C(CN1CCC(C(=O)c2ccc(F)cc2)CC1)Nc1ccccc1Cl	-2	2	-16	4459	-1	-3.0	17
Cc1ccc2c(c1)OC(=O)CC2c1ccccc1 (stereo not drawn)	x	x	-13	4946	0	0.9	-6
Cc1noc(NS(=O)(=O)c2ccc(NC(=O)c3cc4ccccc4o3)cc2)c1C	19	24	-13	3344	x	6.4	-2
COc1ccc(C(C(=O)NCC2CCCO2)N(C(=O)c2snc(C(N)=O)c2N)c2ccccc2)cc1OC (stereo not drawn)	3	6	-20	5908	-16	6.8	16
O=C(Cn1c(=O)[nH]c2ccccc2c1=O)Nc1ccc2c(c1)OCO2	3	-9	-27	5044	3	2.6	10
CCN1C(=O)C2C(c3ccc(-c4cccc(Cl)c4)cc3)N3CCCC[C@@]3(C(=O)OC)C2C1=O (stereo partly drawn)	-2	-3	x	x	x	3.6	-1
O=C(CN1CC=C(c2ccccc2)CC1)NC(=O)NC1CCCCC1	0	8	-22	3610	x	4.6	2
CCOCCCn1cnc2c(c1=O)c1nc3ccccc3nc1n2-c1ccccc1	7	-3	x	9688	1	4.4	-5
CC1(C)CN(c2cccc(Br)c2)C1=O	x	x	-30	2665	8	x	x
COc1ccccc1N1CCN(/N=C/c2cc(OC)c(O)c(OC)c2)CC1	x	x	-24	10923	5	x	x
Nc1nnc(SCc2coc(-c3ccc(Cl)cc3)n2)s1	x	x	-39	2920	1	2.5	14
Cc1ccc(S(=O)(=O)CC(=O)Nc2nc(C(C)(C)C)cs2)cc1	2	6	-16	5669	5	3.2	16
Cc1nc2sc3c(NCc4ccco4)ncnc3c2c2c1COC(C)(C)C2	0	-17	-11	3020	-12	14	8
Cc1cc(C)c2c(CN3CCN(CCO)CC3)cc(=O)oc2c1	7	7	-12	23234*	-2	0.7	-4
COc1ccc(/C(N)=N/OC(=O)CCCN2C(=O)c3ccccc3C2=O)cc1OC	13	7	-11	2084	3	5.0	5
CC(=O)c1ccc(OCC(O)CN2CCCC(C)C2)cc1 (stereo not drawn)	4	6	-16	5483	-5	-12	-2
CCOC(=O)c1cccc(NC(=O)CCc2c(C)nc3ncnn3c2C)c1	4	12	-29	17612*	1	-0.2	5
CCOC(=O)C(C)NC(=O)C(NC(=O)C1CCC(CC)CC1)C(C)C (stereo not drawn)	9	15	-24	4022	-12	1.8	4
COc1ccc(-c2ccc(/C=C3/C(=N)N4C(C)=CSC4=NC3=O)o2)c([N+](=O)[O-])c1	4	2	-4	2731	-20	5.9	98*
O=C(CSc1nnc(CNC(=O)c2ccccc2F)o1)NC1CCCC1	12	8	0	5151	-7	3.0	6
Cc1nc2c(nnn2Cc2ccccc2)c(=O)n1-c1ccccc1	x	x	-18	4582	0	-1.4	1
CC(=O)c1cccc(NC(=O)C2CC(=O)N(C3CCCC3)C2)c1 (stereo not drawn)	7	6	-13	3127	x	1.5	4
COc1cccc(C2/C(=C(\O)c3ccc4c(c3)OCCO4)C(=O)C(=O)N2Cc2cccnc2)c1 (stereo not drawn)	-4	13	1	5549	1	0.2	-1
CCn1c(SC(C)C(=O)Nc2ccc(N3CCOCC3)cc2)nnc1-c1ccco1 (stereo not drawn)	1	6	-8	x	4	0.0	1
O=C(O)CC1(C(=O)O)CCCC1	10	3	-14	3037	x	-3.7	-5
CC#CC#Cc1cccc(=O)o1	9	9	-7	4041	-2	2.6	2
CCCNC(=O)N1CCN(C(c2ccccc2)c2ccccc2)CC1	0	-4	-13	6010	-19	-0.1	6
CNC(=O)C(=O)NCC(c1cccs1)S(=O)(=O)c1ccc(C)cc1 (stereo not drawn)	3	-6	-13	5460	7	3.1	7
S=C(NCc1cccs1)Nc1ccc(Cl)cc1	0	7	-19	3600	1	-2.9	-7

For reference, part of the list above:
SMILES	Mtb hypoxia inh	Mtb hypoxia inh growth	PrP 5UTR inh	Bead autofluor	BJeLR lethal	Sa RN4220 lethal	ugtP null kill
CC#CC#Cc1cccc(=O)o1	9	9	-7	4041	-2	2.6	2
CCCNC(=O)N1CCN(C(c2ccccc2)c2ccccc2)CC1	0	-4	-13	6010	-19	-0.1	6
CNC(=O)C(=O)NCC(c1cccs1)S(=O)(=O)c1ccc(C)cc1 (stereo not drawn)	3	-6	-13	5460	7	3.1	7
S=C(NCc1cccs1)Nc1ccc(Cl)cc1	0	7	-19	3600	1	-2.9	-7

(listing goes on)
SMILES	Mtb hypoxia inh	Mtb hypoxia inh growth	PrP 5UTR inh	Bead autofluor	BJeLR lethal	Sa RN4220 lethal	ugtP null kill
CCOC(=O)C1(Cc2ccccc2)CCCN(Cc2ccccn2)C1 (stereo not drawn)	10	1	-4	4375	-1	2.7	-1
CCOC(=O)c1c(-c2ccccc2)oc2cc(Br)c(O)cc12	-8	0	-7	3231	-5	-8.5	13
O=C(CSc1nc2ncccc2[nH]1)NC1CCCC1	5	8	-5	4928	-12	6.2	0
Cc1ccc(S(=O)(=O)N2CCCC2)cc1C(=O)NCc1ccccn1	-1	-1	-11	3959	1	2.4	6
CCOc1ccc(C(=O)NCc2cccs2)cc1	20	17	-39	3247	0	1.4	1
COC(=O)c1ccc(N2CCOCC2)c(NC(=O)c2ccc3c(c2)OCO3)c1	17	3	-18	2857	-6	1.2	7
CNC(=O)N(O)C1N(/N=C/c2ccccc2O)C(=S)SC1(C)C (stereo not drawn)	x	x	-6	3720	-8	x	x
Cc1nc(SCC(=O)N2CCC(Cc3ccccc3)CC2)[nH]c(=O)c1C	-1	7	3	4850	9	2.6	1
CC(=O)O/N=C/c1c(C)c(C=O)n2ccccc12	x	x	-38	4481	-3	x	x
CC(C)CN1CCC(=O)N([C@H](CSc2ccc(Br)cc2)Cc2ccccc2)CC1	x	x	-3	4054	2	x	x
COC(=O)/C(=C/N(C)C)C(=O)N1CCN(c2ccc(Cl)c(Cl)c2)CC1	7	4	-16	4663	3	6.8	7
CCCCN(C)C(=O)Cc1c(OC)ccc2cc(Br)ccc12	-2	11	-17	2433	0	-0.7	-14
O=C1CCCCC1C(Nc1ccc(Cl)cc1)c1ccccc1 (stereo not drawn)	11	14	-3	3275	-8	-8.3	22
O=C(N/N=C/c1c(F)c(F)c(F)c(F)c1F)c1cc(-c2ccccc2)nc2ccccc12	x	x	-15	3724	-4	x	x
FC(F)(F)c1ccc(C2[C@H]3CN(CC4CCCCC4)[C@H](c4ccccc4)C34CC2(c2cccnc2)C4)cc1 (stereo partly drawn)	x	x	-5	4699	1	x	x
O=C(c1ccccc1)c1cncc(Br)c1	2	-2	-4	3244	-14	-1.8	-6
CC(=O)N(Nc1ccccc1)c1ccccc1	12	3	-4	3704	8	1.2	-4
CCOC(=O)c1[nH]c(C)c(C(=O)Nc2ccc(C)c(C)c2)c1C	x	x	-17	5909	1	0.7	-5

Sorted by molar mass (lowest first): some entries from above.
SMILES	Mtb hypoxia inh	Mtb hypoxia inh growth	PrP 5UTR inh	Bead autofluor	BJeLR lethal	Sa RN4220 lethal	ugtP null kill
O=C(c1ccccc1)c1cncc(Br)c1	2	-2	-4	3244	-14	-1.8	-6
O=C(CSc1nc2ncccc2[nH]1)NC1CCCC1	5	8	-5	4928	-12	6.2	0
CCOC(=O)c1[nH]c(C)c(C(=O)Nc2ccc(C)c(C)c2)c1C	x	x	-17	5909	1	0.7	-5
CCOC(=O)c1c(-c2ccccc2)oc2cc(Br)c(O)cc12	-8	0	-7	3231	-5	-8.5	13

Hits appear at their usual frequency; about 4% have a hit in one of these screens.
